D2 ag – Beta-Arrestin HTS for Positive Allosteric Modulators of the Human D2 Dopamine Receptor: Agonists; 0.084% of 360,000 active; D(2) dopamine receptor (Homo sapiens), P14416; DiscoveRx PathHunter D2 beta-arrestin, luminescence, 90 min; 100% = 57 uM dopamine signal; activation, % (test concentration not listed); in the data active = activation above about 40%; inconclusive = about 15% to 40%; inactive = below about 15%; further: compound concentration not given in the record; the text of the record calls up to 30% inactive
Target sequence (P14416 whole entry, looked up): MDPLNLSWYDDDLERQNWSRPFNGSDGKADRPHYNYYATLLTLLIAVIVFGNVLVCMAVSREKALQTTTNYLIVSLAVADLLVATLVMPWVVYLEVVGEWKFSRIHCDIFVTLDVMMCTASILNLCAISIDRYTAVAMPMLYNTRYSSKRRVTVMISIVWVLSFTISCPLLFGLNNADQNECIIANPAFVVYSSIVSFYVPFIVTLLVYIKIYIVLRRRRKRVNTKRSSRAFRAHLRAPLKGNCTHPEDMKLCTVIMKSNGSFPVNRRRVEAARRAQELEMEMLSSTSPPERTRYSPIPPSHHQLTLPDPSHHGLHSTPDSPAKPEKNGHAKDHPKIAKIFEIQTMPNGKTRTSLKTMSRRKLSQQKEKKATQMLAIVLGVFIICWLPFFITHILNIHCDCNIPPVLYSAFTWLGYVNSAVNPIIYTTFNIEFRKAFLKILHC
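Agonist mode: compounds alone added to overnight-plated D2 PathHunter cells for 90 min at 37 C, with 57 uM final dopamine (EC100) defining full response. Beta-arrestin recruitment detected by chemiluminescent reagent, read after 1 h at ambient temperature.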
gsp antagonist – qHTS for Antagonists of gsp, the Etiologic Mutation Responsible for Fibrous Dysplasia/McCune-Albright Syndrome: qHTS. 0.4% of 340,000 active. Potency, µM (top dose mostly 76.9 µM), for inactives: top-dose activity change, negative = inhibition, usual class: inhibitors. gsp-mutant cells, cAMP HTRF, 30 min; control for the full effect not named in the record. AID 624288, 2012; active = falling curve of any shape with a large fitted effect; inconclusive = falling curve, mostly with a smaller effect; inactive = flat or rising curve; cell line not stated here;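 further: intracellular cAMP measured with PDE inhibitor Ro 20-1724 present during compound exposure; potency means the concentration at half of the fitted maximal effect; on the % scale 0 is the no-effect control and ±100 the full control effect; nearly all actives have a fitted effect of over 65% in size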
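Measurement of cellular cAMP by homogeneous time-resolved fluorescence following a 30 min compound exposure at 37C. The PDE inhibitor […] was present throughout; the assay buffer was DPBS with 0.05% BSA and 0.005% Tween 20.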
Menin MLL FP FL – qHTS Assay for Inhibitors Targeting the Menin-MLL Interaction in MLL Related Leukemias: Competition With Fluorescein Labeled MLL-derived Peptide; FP activity change, % at 61.4 µM; 290,000 tested, under 10 active; Fluorescence polarization, fluorescein-MLL peptide displacement from menin; AID 1766, 2009; inconclusive = falling polarisation curve, or a change in total fluorescence; inactive = total fluorescence flat and polarisation flat or rising; no compound was filed as active; the % refers to the polarisation; negative = inhibition;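 further: % of control where 0% means no effect; inhibitors lower the polarisation; unlabelled MLL peptide was the positive control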
PINK1 modulator – A Quantitative High throughput Screen to Identify Chemical Modulators of PINK1 Expression; PINK1 immunofluorescence, high-content cytometry, 24 h; Potency, µM (series often up to 76.6 µM), without a hit: at the highest dose activation (PINK1 increase), actives largely listed as activators; 0.2% of 410,000 active; AID 624263, 2012; active = well fitted activation curve with a large enough effect; inconclusive = small, poorly fitted or top-dose-only effect; inactive = flat fitted curve, though single readings scatter; cell line not stated here;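 further: potency means the concentration at half of the fitted maximal effect; % of control where 0% means no effect; nearly all actives have a fitted effect of over 65% in size; a mitochondrial uncoupler was the plate control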
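Decision-based qHTS: stable cells, 24 h exposure to five compound concentrations, CCCP as control. Fixed cells stained for PINK1 plus nuclear, mitochondrial and cell markers, cytometer read.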
ClpP mod – qHTS Assay for Activators of ClpP; 1.9% of 340,000 active; Potency, µM (highest dose often 57.5 µM), for the others: top-dose activity change, negative = active; ATP-dependent Clp protease proteolytic subunit (Bacillus subtilis (strain 168)), P80244; purified B. subtilis ClpP, FRET peptide cleavage, 20 min; active = well fitted falling curve with a large enough effect; inconclusive = small, poorly fitted or top-dose-only effect; inactive = no such curve, though single readings can be large or run the other way; further: potency means the concentration at half of the fitted maximal effect; the source files actives as falling curves though it sought activators and does not explain the sign; nearly all actives have a fitted effect of over 65% in size; many hits overshoot -100%
Target sequence (P80244 whole entry, looked up): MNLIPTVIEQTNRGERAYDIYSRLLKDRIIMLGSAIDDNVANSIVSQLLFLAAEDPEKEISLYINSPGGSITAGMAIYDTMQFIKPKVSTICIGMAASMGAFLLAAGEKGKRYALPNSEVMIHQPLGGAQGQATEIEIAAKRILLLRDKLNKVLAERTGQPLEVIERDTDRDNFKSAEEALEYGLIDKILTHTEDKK
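FRET quenching reversal measured ClpP activation: 10 microg/mL B. subtilis ClpP at pH 8 with the FRET-FV decapeptide, read at 430 nm after 320 nm excitation. The 20-min minus 0-min signal was scaled between DMSO/no-enzyme wells and ADEP (5.8 microM final).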
Sfp PPTase inh – qHTS Assay for Inhibitors of Bacillus subtilis Sfp phosphopantetheinyl transferase (PPTase) | 3.5% of 310,000 active | Biochemical Sfp PPTase activity, qHTS | Potency, µM, without a hit: max response, negative = inhibition, usual class: inhibitors; active means well fitted inhibition curve with a large enough effect; inconclusive means small, poorly fitted or top-dose-only effect, or another doubt; inactive means no such curve, though single readings can be large or run the other way;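 further: the enzyme is Sfp with the accession as filed and its product quenches rhodamine fluorescence; potency means the concentration at half of the fitted maximal effect; 0% = enzyme reaction without inhibitor and -100% = no enzyme wells; top concentration of the series not given in the record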
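Fluorescence-quenching assay: 15 nM Sfp-PPTase preincubated 15 min at room temperature with compound, then 5 uM rhodamine-CoA and 12.5 uM BHQ-2-labelled YbbR peptide added. Fluorescence (ex 525/em 598 nm) read at start and after 30 min; difference gives rate.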
gsp ag – qHTS for Agonist of gsp, the Etiologic Mutation Responsible for Fibrous Dysplasia/McCune-Albright Syndrome: qHTS; gsp mutant cells, cAMP HTRF, 30 min; control for the full effect not named in the record; Potency, µM (top dose mostly 76.9 µM), for the others: at the top dose activation (cAMP increase), most hits filed as activators; 0.13% of 340,000 active; AID 624287, 2012; active = well fitted activation curve with a large enough effect; inconclusive = small, poorly fitted or top-dose-only effect, or another doubt; inactive = no such curve, though single readings can be large or run the other way; cell line not stated here;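 further: phosphodiesterase inhibitor Ro 20-1724 added with compounds to block cAMP breakdown; potency means the concentration at half of the fitted maximal effect; nearly all actives have a fitted effect of over 60% in size; about a fifth of the inactives were tested at one dose only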
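Cells stably selected in G418 were plated at 2000/well, grown 16-24 hr, then given compounds in DMSO with the PDE inhibitor […] (300 uM solution added) for 30 min at 37C; cAMP was read by HTRF.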
* marks the source's active call; other numbers are inactive results; u = inconclusive; x = no result given; [ ] = dose if it differs, or a comment.

1) Cc1nn(C)c(C)c1NC(=O)c1ccnn1C
2) COc1ccc(CCNC(=O)COc2ccc(C)nc2[N+](=O)[O-])cc1OC
3) CCOC(=O)c1c(CSc2ccccc2)n(C)c2ccc(O)c(CN3CCN(C)CC3)c12
4) CC(C)COP(=O)(c1ccc(N(C)C)cc1)C(O)c1ccc(Br)cc1 (centres undefined)
5) Cc1ccccc1Nc1nc(N)nc(CSc2nc3ccccc3s2)n1
6) CCCCc1ccc(NS(=O)(=O)c2c(C)n(C)c(=O)n(C)c2=O)cc1
7) O=C(O)CN1CCCC1=Nc1ccccc1
8) CCCc1nnc(NC(=O)C2CC(=O)N(CCc3ccc(F)cc3)C2)s1 (centres undefined)
9) O=C(Nc1nc2ccccc2s1)c1c(F)cccc1Cl
10) CCc1nnc2sc(-c3ccc(NC(=O)c4ccc5c(c4)OCCO5)cc3)nn12
screen / no.,1,2,3,4,5,6,7,8,9,10
D2 ag,-3.2,-1.8,-3.0,-14,-6.5,-4.3,-0.3,-2.2,4.2,-0.7
gsp antagonist,1%[15.4 µM],-1%,-2%,-6%,-4%,-7%,7%,-1%,-1%,-2%
gsp ag,-60%[inhibitor],1%,38%,6%,10%,-37%,-34%,u,2%[15.4 µM],-49%[inhibitor]
ClpP mod,1.2%,x,0.5%,-2.6%,-3.9%,-0.4%,-1.3%,x,-5.5%,28µM*
Sfp PPTase inh,10%,10%,-10%,7%,12%,11%,12%,-7%,6%,10%
PINK1 modulator,-0.2%,1.1%,-1.2%,-2.8%,3.3%,2.3%,-5.7%[38.3 µM],-0.6%,-1.3%,1.2%
Menin MLL FP FL,6.4,-3.8,0.5,2.3,1.7,-0.5,4.4,u,-1.0,5.1

11) CCCCn1nc(C(=O)O)ccc1=O
12) O=C(Nc1nccs1)C1CC=CCC1 (centres undefined)
13) Cn1cnnc1SCc1ccc(C(=O)N/N=C(\CCC(=O)O)c2ccc(C(C)(C)C)cc2)cc1
14) CC(Sc1nc(N)cc(=O)[nH]1)C(=O)Nc1ccc(N2CCOCC2)cc1 (centres undefined)
15) C=CCN1C(=O)C2(OCCCO2)c2cc(C)ccc21
16) O=C(Nc1cccc(Cl)c1)NC1CCS(=O)(=O)C1 (centres undefined)
17) Cc1ccc(SCc2cn3ccccc3n2)cc1
18) Cc1ccc(CNC(=O)Cn2ncn3cccc3c2=O)cc1
19) CCCCC(CCC(=O)O)(C(=O)OCC)c1csc(Nc2ccc(C)cc2)n1 (centres undefined)
20) CCn1c(SCC(=O)Nc2ccccc2Cl)nnc1C1CC1
screen / no.,11,12,13,14,15,16,17,18,19,20
D2 ag,0.1,-5.0,-3.8,-1.3,2.8,-1.0,-0.9,-4.6,5.8,2.2
gsp antagonist,-6%,14%,-14%,x,1%,-21%,4%,4%,-19%,x
gsp ag,-10%,-10%[15.4 µM],-10%,-227%[inhibitor],10%[15.4 µM],11%[15.4 µM],3%[15.4 µM],4%,-14%[15.4 µM],3%[15.4 µM]
ClpP mod,0.0%,0.1%,0.4%,0.2%,-0.4%,x,x,-0.9%,x,x
Sfp PPTase inh,4%,-10%,9%,x,7%,11%,16%,1%,0%,-2%
PINK1 modulator,1.3%,-0.9%,-0.8%,-1.2%,0.5%,-0.2%,1.8%,-0.4%,-0.4%,1.2%
Menin MLL FP FL,-0.6,-4.5,3.9,x,-1.2,-2.9,1.5,4.2,-0.8,0.0

21) COc1ccc(N(CC(=O)O)S(C)(=O)=O)cc1OC
22) N#CCC(C(=O)c1cccnc1)c1ccccc1 (centres undefined)
23) CCOc1ccc(-c2cccc(NC(=O)COc3ccccc3)c2)nn1
24) O=[N+]([O-])c1ccc(Sc2nccn2Cc2ccccc2)c([N+](=O)[O-])c1
25) O=C(Nc1ccc(Cl)cc1)c1cc2nc(-c3ccco3)cc(C(F)(F)F)n2n1
26) NC(=O)CSc1nc2scc(-c3ccc(Cl)cc3)c2c(=O)n1Cc1ccccc1
27) CCn1nc(C)c(/C=N/NC(=O)Cn2nnnc2N)c1C
28) C=C(c1ccccc1C)[n+]1ccccc1
29) CC(C)(C)c1ccc(N=C2SCC(=O)N2Cc2cccs2)cc1
30) COc1ccc(C(=O)NC(C(=O)N2CCc3ccccc32)C(C)C)cc1 (centres undefined)
screen / no.,21,22,23,24,25,26,27,28,29,30
D2 ag,-0.9,-2.7,0.4,1.2,-2.1,3.2,-3.2,-1.0,-3.3,-2.5
gsp antagonist,13%,x,u,-3%,-8%,u,2%,7%,3%,-6%
gsp ag,1%,-37%[inhibitor],26%,5%,u,-36%[inhibitor],-13%[15.4 µM],-3%[15.4 µM],9%[15.4 µM],17%
ClpP mod,-1.8%,-1.3%,2.2%,-0.4%,14µM*,x,u,-2.8%,x,-1.2%
Sfp PPTase inh,15%,x,-3%,-3%,13%,-11%,16%,5%,10%,2%
PINK1 modulator,0.3%,1.4%,0.7%,-1.1%,17%,2.5%,-0.2%,-0.4%,6.9%,4.6%
Menin MLL FP FL,1.0,x,-0.2,0.1,7.9,1.2,3.1,-6.5,0.3,4.1

In the list so far, 5 have a COOH group:
7) O=C(O)CN1CCCC1=Nc1ccccc1
11) CCCCn1nc(C(=O)O)ccc1=O
13) Cn1cnnc1SCc1ccc(C(=O)N/N=C(\CCC(=O)O)c2ccc(C(C)(C)C)cc2)cc1
19) CCCCC(CCC(=O)O)(C(=O)OCC)c1csc(Nc2ccc(C)cc2)n1 (centres undefined)
21) COc1ccc(N(CC(=O)O)S(C)(=O)=O)cc1OC
screen / no.,7,11,13,19,21
D2 ag,-0.3,0.1,-3.8,5.8,-0.9
gsp antagonist,7%,-6%,-14%,-19%,13%
gsp ag,-34%,-10%,-10%,-14%[15.4 µM],1%
ClpP mod,-1.3%,0.0%,0.4%,x,-1.8%
Sfp PPTase inh,12%,4%,9%,0%,15%
PINK1 modulator,-5.7%[38.3 µM],1.3%,-0.8%,-0.4%,0.3%
Menin MLL FP FL,4.4,-0.6,3.9,-0.8,1.0

Additional results follow:
31) O=C(/C=C/c1ccc(F)cc1)NCCCn1ccnc1
32) COc1ccc(Oc2cc(F)nc(N)n2)cc1
33) O=C(CSc1nc2cc(Cl)ccc2s1)NCc1ccc2c(c1)OCO2
34) Cc1nnc(SCC(=O)Nc2nsc(-c3ccccc3)n2)s1
35) COC(=O)C(c1cc(OC)c(O)c(OC)c1)(N1CCNC(C)C1)C(F)(F)F (centres undefined)
36) CCCc1cnc(NCCNCC(O)COc2ccc(Cl)c(Cl)c2)nc1 (centres undefined)
37) O=C(NC(=S)Nc1cccc(Cl)c1)c1cncc(Br)c1
38) CCCCn1ccc(O)c(Cc2ccc(F)cc2)c1=O
39) COc1ccc(CNC(=S)Nc2ccc(F)c(Cl)c2)cc1
40) O=c1[nH]cnc2c1N1CCC2CC1
screen / no.,31,32,33,34,35,36,37,38,39,40
D2 ag,4.0,-1.1,1.4,1.7,-1.7,-12,-1.3,-3.3,0.7,-1.9
gsp antagonist,0%,11%,-12%,5%,9%,4%,-5%,7%,x,4%
gsp ag,-39%[inhibitor],2%,0%,3%,16%,-7%[15.4 µM],1%[15.4 µM],7%,0%[15.4 µM],-4%
ClpP mod,1.1%,-1.7%,-2.8%,-5.0%,-1.9%,x,x,-4.8%,x,1.0%
Sfp PPTase inh,11%,14%,12%,-29%,-14%,u,x,1%,-28%,-28%
PINK1 modulator,-3.5%,u,8.0%,5.3%[38.3 µM],-0.1%,-2.5%,8.2%,0.0%,13%,0.5%
Menin MLL FP FL,7.3,0.5,3.3,-4.5,1.3,-7.7,x,-2.0,4.8,0.2

41) Cc1c(Cl)c([N+](=O)[O-])nn1CC(=O)Nc1ccc2c(c1)OCO2
42) CS(=O)(=O)c1cccc(C(=O)Nc2cccc(S(=O)(=O)N3CCCC3)c2)c1
43) COc1cc(CC(=O)NCc2ccco2)cc(OC)c1OC
44) COc1ccc(CNC(=O)COC(=O)CO/N=C(\C)c2ccc3c(c2)OCO3)cc1
45) CC1=NN(c2nc(-c3ccc(F)cc3)cs2)C(=O)C1
46) O=C(CCCCCNC(=O)N1CCn2c1nc1ccccc12)NCc1ccc(F)cc1
47) CCCN1CCN(c2ncnc3scc(C4COc5ccccc5O4)c23)CC1 (centres undefined)
48) CCc1ccc(N2CC(C(=O)Nc3ccc(OC)c(S(=O)(=O)N4CCOCC4)c3)CC2=O)cc1 (centres undefined)
screen / no.,41,42,43,44,45,46,47,48
D2 ag,-3.0,-3.7,-4.4,-2.5,-5.7,-6.1,2.3,-1.2
gsp antagonist,8%,-4%,-9%,-10%,u,-10%,-5%,x
gsp ag,-15%,16%[15.4 µM],u,-90%[inhibitor],10%,9%,-4%[15.4 µM],-32%[inhibitor]
ClpP mod,0.4%,x,0.0%,-1.4%,0.0%,0.2%,x,0.9%
Sfp PPTase inh,4%,x,4%,x,21%,15%,2%,x
PINK1 modulator,1.1%,-0.1%,-5.6%,1.5%,5.4%,0.3%,-0.4%,0.1%
Menin MLL FP FL,6.0,x,-0.9,x,2.7,x,3.6,x

Two compounds from above, reduced to ClpP mod.
No.	SMILES	ClpP mod
45	CC1=NN(c2nc(-c3ccc(F)cc3)cs2)C(=O)C1	0.0%
44	COc1ccc(CNC(=O)COC(=O)CO/N=C(\C)c2ccc3c(c2)OCO3)cc1	-1.4%
